Screens: PubChem, several laboratories
LANA-H2B inh: blocks KSHV LANA binding to histone H2A/H2B | 0.6% of 320,000 active | Q9QR71 | inhibition, % (test concentration not listed) | AID 2629 | cell-free LANA-H2A/H2B peptide, fluorescence polarization; in the data active = inhibition mostly above about 10%, no sharp cut-off; inactive = mostly below about 6.7%;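 note: stock transfer was 7.5 nL into about 10 µL; 0% = median of vehicle wells and 100% = median of positive control wells; one replicate is shown; the record names a cut of 25% in any replicate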
Ecoli growth: inhibitors of Escherichia coli growth | OD600 absorbance (no concentration beside the values) | 0.21% of 330,000 active | OD600, 23 h; active compounds read low;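 active = OD600 absorbance below the run mean of sample wells minus 3.6 SD, in any replicate, cut at about 0.56 in these data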;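 note: stock transfer was 300 nL into about 60 µL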
A1 inh: inhibitors of the anti-apoptotic protein A1, read as caspase activation. MEF A1-2A-BIM cells, Caspase-Glo 3/7 luminescence, 3 h; percent of clofoctol response, vehicle zero. caspase activation, % (test concentration not listed). 0.066% of 330,000 active. AID 2462;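 active = over half of replicate activation scores above 10%, or exactly half above 10 with the replicate mean above 10; inconclusive = replicate mean below 10 yet half the replicates above 10; inactive = over half of replicates below 10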;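 note: wells of about 30 µL received 50 nL stock; many hits fall short of the cut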
UCH37 inh: human UCH37 deubiquitinating enzyme inhibition; purified proteasome/UCH37, Ub-AMC cleavage fluorescence; inhibition, % (no concentration beside the values); 0.33% of 330,000 active; AID 588478;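 active = mean of two replicates above 20%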;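 note: 0% = compound-free wells with enzyme and 100% = wells lacking proteasome; stock transfer was 100 nL into about 20 µL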
Target sequence (Q9Y5K5 whole entry, looked up): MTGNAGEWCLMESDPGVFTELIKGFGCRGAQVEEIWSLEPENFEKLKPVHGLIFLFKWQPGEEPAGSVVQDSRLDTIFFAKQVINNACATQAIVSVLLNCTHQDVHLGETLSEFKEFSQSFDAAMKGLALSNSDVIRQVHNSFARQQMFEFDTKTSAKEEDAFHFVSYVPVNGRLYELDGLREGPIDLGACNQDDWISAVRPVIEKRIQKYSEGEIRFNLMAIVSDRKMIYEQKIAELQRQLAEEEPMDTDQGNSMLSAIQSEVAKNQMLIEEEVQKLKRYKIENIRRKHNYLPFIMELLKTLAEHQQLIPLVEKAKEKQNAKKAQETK
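system = Proteasome-associated human UCH37 deubiquitinase | amount = 0.15 nM proteasome as dispensed | medium = pH 7.4 Tris-HCl (50 mM) with ovalbumin, ATP-MgCl2, DTT | incubation = 30 min preincubation with enzyme, 25 min cleavage at room temperature | detection = AMC fluorescence 355/460 nm | read-out basis = percent inhibition | controls = no-proteasome and no-compound wells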
Vif TR-FRET: inhibitors of Vif binding to APOBEC3G peptide, primary screen, biochemical, TR-FRET, GST-Vif 1-94, biotin-A3G peptide, dose response retest (AID 1117319). TR-FRET GST-Vif / biotin-A3G peptide binding; higher % means a stronger effect; test concentration not given here; strong numbers were not always called active. 0.57% of 260,000 active. inhibition, %; hits with a dose series show IC50 in µM;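 active = above the screen mean plus three standard deviations and confirmed in dose response; inconclusive = results disagree or hit not tested in dose response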;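 note: Vif residues 1-94 fused to GST binding biotinylated APOBEC3G peptide 110-148; 0% = full assay without inhibitor and 100% = GST in place of GST-Vif; retest series ran down from 100 µM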
Beta2AR agonist: activates human beta-2 adrenergic receptor causing internalization; P07550; Am2.2-beta2AR cells, FAP receptor internalization, flow cytometry; reference of the scale not given here; response, % (test concentration not listed); 0.43% of 340,000 active; AID 504454;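 active = response above a set limit, near 3 SD of response in nonfluorescent compounds, cut at about 42% in these data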;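 note: stock transfer was 100 nL into about 11 µL; a reference agonist was the positive control; negative values mostly stem from fluorescent compounds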
Target sequence (P07550 whole entry, looked up): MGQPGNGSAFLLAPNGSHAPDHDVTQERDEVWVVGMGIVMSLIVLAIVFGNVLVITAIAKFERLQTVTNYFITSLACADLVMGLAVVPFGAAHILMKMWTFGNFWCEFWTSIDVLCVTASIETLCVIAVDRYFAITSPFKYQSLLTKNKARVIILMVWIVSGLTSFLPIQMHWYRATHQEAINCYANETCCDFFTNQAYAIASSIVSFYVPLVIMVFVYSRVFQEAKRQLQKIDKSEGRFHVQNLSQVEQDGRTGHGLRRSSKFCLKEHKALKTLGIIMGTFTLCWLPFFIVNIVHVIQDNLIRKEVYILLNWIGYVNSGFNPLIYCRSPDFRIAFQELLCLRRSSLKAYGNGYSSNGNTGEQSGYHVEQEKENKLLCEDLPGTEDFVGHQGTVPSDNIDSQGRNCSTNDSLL
HNF4A DNA FP: change in binding of human HNF4 alpha to DNA. HNF4a-FITC DNA binding, fluorescence polarization, 1 h. activity change, % at 10 µM. 0.3% of 360,000 active. AID 1224865; in the data active = activity change above about 30%, passing the limit was not always enough;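 note: controls were the assay level and a saturating level of protein; the project sought stronger binding though the title names inhibitors; some compounds called inactive have numbers as strong as hits; positive values seem to mean higher polarization but the record does not say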
* marks the source's active call; other numbers are inactive results; ? = inconclusive; . = not tested or not shown.

Under each structure – LANA-H2B inh | Ecoli growth | A1 inh | UCH37 inh | Vif TR-FRET | Beta2AR agonist | HNF4A DNA FP
> O=c1[nH]c2ccccc2cc1CN(Cc1ccco1)S(=O)(=O)c1ccc(F)cc1
  3.6 | 0.66 | -1.3 | -0.5 | . | -13 | -2.5
> COc1ccc(N/C(=N\c2nc(C)cc(C)n2)NC(=O)C(C)C)cc1OC
  4.5 | 0.7 | 0.9 | 5.8 | -5% | -22 | -2.6
> O=C(N1CCN(S(=O)(=O)c2ccc(Cl)cc2)CC1)n1ccnc1
  -2.6 | 0.71 | 0.6 | 3.0 | . | 8 | -0.4
> Cc1cccc(CCNS(=O)(=O)c2ccc3c(c2)oc(=O)n3C)c1
  2.1 | 0.65 | -0.3 | 0.8 | 2% | 11 | 9.0
> O=C(c1cc(S(=O)(=O)N2CCOCC2)c(Cl)cc1Cl)N1CCCC1
  . | 0.69 | . | 0.7 | 8% | -12 | -0.6
> CCC(C)C(=O)Nc1ccc(S(=O)(=O)N2CCCC2)cc1 (stereo unspecified)
  -1.3 | 0.65 | 0.7 | 5.8 | . | -2 | 2.4
> C=CCN1C(=O)c2ccccc2NC1c1cc(Br)cs1 (stereo unspecified)
  0.8 | 0.67 | 0.0 | -72 | . | -3 | -0.4
> COc1ccc(NC(=O)Cn2c([N+](=O)[O-])cnc2C)cc1Cl
  7.5 | 0.64 | 0.5 | 3.2 | -9% | 10 | 2.0
> O=C(CN1C(=O)S/C(=C\c2cccs2)C1=O)Nc1ccc(O)c(C(=O)O)c1
  0.0 | 0.69 | 1.0 | 21* | . | -7 | -1.3
> c1cn2c(Nc3ccc4c(c3)OCCO4)c(-c3ccc(N4CCOCC4)cc3)nc2cn1
  -1.6 | 0.69 | -0.2 | -27 | -5% | 5 | -2.8
> COc1ccc(NC2CCCN(C(=O)CSc3ccccc3)C2)cc1 (stereo unspecified)
  1.1 | 0.71 | 0.3 | 1.6 | 1% | 0 | -0.7
> O=C(Oc1cncc(Cl)c1)c1ccco1
  0.6 | 0.71 | 0.0 | 3.7 | 3% | -3 | 2.7
> CCc1nccn1S(=O)(=O)c1ccc(OC)c(C)c1C
  2.4 | 0.71 | -0.1 | 6.0 | 4% | 4 | -2.0
> CC(C)c1nc2sc3c(c2c(=O)o1)CCCC3
  3.0 | 0.7 | -0.2 | 1.9 | 2% | 0 | -2.7
> CCOc1cccc(CNCc2ccc(C(=O)O)cc2)c1
  -0.1 | 0.74 | -0.4 | -1.1 | . | -8 | 1.1
> Cc1ccc(NC(=O)CCC(=O)OCc2ccc(Br)cc2)cc1
  -0.6 | 0.7 | -1.2 | 2.5 | 4% | 1 | 0.0
> CN(C)S(=O)(=O)c1ccc(C(=O)NNC(=O)C2COc3ccccc3O2)cc1 (stereo unspecified)
  -0.5 | 0.62 | 0.7 | 0.3 | . | 4 | 3.9
> CC(C)(C)N(Cc1ccccc1)C(=O)COC(=O)c1ccc(N2CCCC2=O)cc1
  0.1 | 0.65 | 0.6 | 3.0 | -8% | -7 | 2.9
> COc1cc(SC)ccc1C(=O)Nc1c(Cl)cncc1Cl
  3.4 | 0.71 | 0.8 | 0.0 | . | -9 | -1.6
> CCOc1ccc(S(=O)(=O)Nc2ccccc2C(=O)N/N=C/c2c(OC)ccc3ccccc23)cc1
  0.4 | . | 0.9 | . | . | 3 | -1.0
> CCN(CC)C(=O)N1c2ccccc2C=Cc2ccccc21
  0.5 | 0.74 | 0.4 | -1.3 | 2% | -2 | 0.9
> O=C1OC(Nc2ccc(F)cc2F)c2ccccc21 (stereo unspecified)
  2.3 | 0.7 | 0.6 | -1.6 | -2% | 0 | 5.8
> CCOC(=O)c1ccc(CSc2n[nH]c(C)n2)o1
  0.2 | 0.67 | -0.5 | 1.9 | 2% | -7 | -0.1
> Cc1c(CCC(=O)O)c(=O)oc2c(C)c(OCc3ccccc3Cl)ccc12
  -0.6 | 0.71 | 1.0 | -52 | -14% | 5 | -6.1
> c1ccc(-c2ccccc2OCCCCN2CCCCCC2)cc1
  0.7 | 0.65 | -0.2 | 2.4 | . | 7 | -2.4
> Cc1ccc(S(=O)(=O)/N=C2/NC(=O)/C(=C\c3ccco3)S2)cc1
  -8.4 | . | 0.6 | . | ? | -1 | -11
> CCn1nc(NC(=O)c2ccncc2)c2cc3cc(C)ccc3nc21
  4.1 | 0.78 | 0.4 | 3.2 | 7% | 11 | -2.1
> CC1C=CCC2C(=O)N(c3cc(Cl)ccc3O)C(=O)C12 (stereo unspecified)
  -4.0 | 0.71 | 1.1 | 5.3 | 17% | 12 | -7.0
> CCN(CC)CCn1c2c(c(SCC(=O)Nc3cccc4ccccc34)nc1=O)CCCC2
  1.4 | 0.67 | -0.8 | -2.4 | 1% | 3 | -1.1
> COc1cccc(CN2CCN(C(=O)CCc3nnc(C4CCCCC4)o3)CC2=O)c1
  2.0 | 0.71 | -0.3 | -1.1 | . | -2 | 0.7
> O=C(N=C1SC2CS(=O)(=O)CC2N1Cc1ccccc1)C1CCCCC1 (stereo unspecified)
  0.4 | 0.69 | 0.1 | 4.9 | -7% | -9 | -0.3
> Cn1cnnc1Sc1ccc(C(F)(F)F)cc1[N+](=O)[O-]
  1.1 | 0.68 | 0.0 | 5.9 | -2% | -10 | 1.7
> CN(C(=O)c1cccc(NC(=O)Cc2ccc(NC(=O)C3CCN(C(=O)c4ccccc4)CC3)cc2)c1)C1CCCCC1
  . | 0.67 | . | 2.2 | . | -8 | -5.0
> CCc1cccc(-n2c(SCC(=O)c3c(N)n(C4CC4)c(=O)[nH]c3=O)nnc2N2CCOCC2)c1
  . | 0.71 | . | 0.0 | . | 1 | -0.3
> Cc1nnc(SCc2cc(=O)[nH]c(/N=C(\N)Nc3ccccc3)n2)s1
  2.5 | . | -0.2 | . | -2% | -17 | 0.2
> CCc1nnc(NC(=O)c2ccc(-c3ccc(F)cc3)o2)s1
  0.4 | 0.67 | 0.1 | -65 | -8% | 0 | 1.6
> Cc1ccc(S(=O)(=O)N(C)C)cc1NC(=S)N1CCc2ccccc21
  -2.3 | 0.7 | 0.5 | -0.1 | 2% | -1 | -2.3
> CC(C)c1nc(SCC(=O)NCC2CCCO2)c2c(=O)n(C)c(=O)n(C)c2n1 (stereo unspecified)
  8.1 | 0.71 | 0.4 | 1.5 | . | -1 | 0.0
> COC(=O)c1ccc(NC(=O)CSc2nnc(-c3ccccc3)n2C)cc1
  2.9 | 0.8 | 0.1 | 6.0 | 18% | 3 | 0.1
> O=[N+]([O-])c1cnn(-c2nc(-c3cccs3)cc(C(F)(F)F)n2)c1
  -0.3 | 0.69 | -0.2 | 6.2 | . | -16 | 2.9
> Cn1nc(C(C)(C)C)cc1NC(=O)Nc1cc(Cl)cc(Cl)c1
  -0.2 | . | -0.4 | . | . | 5 | 1.0
> CC(Nc1nc(-c2ccc(F)cc2)cs1)c1nc2cc(Cl)c(N3CCCCC3)cc2n1CCCO (stereo unspecified)
  -2.2 | 0.71 | 0.5 | 4.5 | . | 2 | 4.8
> COCCCNC(=O)c1ccc(NS(C)(=O)=O)cc1
  4.3 | 0.77 | 1.4 | 0.9 | -3% | -9 | 1.3
> O=C1c2cc3ccccc3c(-c3ccccc3)c2C(=O)N1c1ccccn1
  1.2 | 0.7 | 1.1 | -16 | 7% | -15 | -2.0
> COc1ccc(NC(=O)CN(c2cccc(F)c2)S(C)(=O)=O)cc1OC
  -2.5 | 0.7 | -0.5 | 1.9 | ? | 1 | -3.9
> COc1ccc(-c2cc(C(=O)NC3CCCC3)no2)cc1OC
  0.3 | 0.74 | -0.5 | 3.9 | 9% | -4 | 3.8
> Nc1c(C(=O)NCc2ccc(Cl)cc2)sc2nc3c(c(C(F)(F)F)c12)CCC3
  -0.4 | 0.65 | -0.5 | 1.7 | 0% | -4 | 0.6
> CN(C)c1ccc(C=C2SC(=S)NC2=O)cc1
  . | 0.71 | . | 8.7 | 1% | 2 | 197
> CC(C)(C)C(=O)N1CCN(c2ccc(NC(=O)c3ccco3)cc2)CC1
  -1.2 | 0.58 | -1.0 | 1.6 | 2% | 2 | -2.2
> CCn1c2ccccc2c2cc(C#N)c(N)nc21
  -2.9 | 0.65 | -0.2 | -86 | . | -1 | 6.9
> CN(CCC#N)CC(=O)Nc1ccc(S(N)(=O)=O)cc1
  -6.0 | 0.67 | 0.0 | -1.6 | 28% | 14 | 3.1
> O=C(CC(=O)N/N=C\c1ccc(F)cc1)NCCc1ccccc1
  -3.5 | . | 1.2 | . | . | -2 | -3.7
> O=C(CCN1CCN(S(=O)(=O)c2ccc(Br)cc2)CC1)Nc1ccccc1F
  2.0 | 0.73 | -0.5 | 1.2 | 8% | 2 | -1.4
> CCn1c(SCC(=O)OC)nnc1C1CCCCC1
  0.8 | 0.69 | 1.1 | -1.0 | 6% | 10 | -0.4
> COc1ccc(C)cc1-n1nnnc1SCC(=O)c1cc(C)n(Cc2ccco2)c1C
  5.9 | 0.73 | 0.4 | 4.9 | 27% | 8 | -0.5
> COc1cc(CNCCc2ccc(S(N)(=O)=O)cc2)ccc1OCC(=O)NC(C)(C)C
  2.0 | 0.66 | 0.2 | 1.6 | . | -3 | -0.2
> COc1cccc(N(CC(=O)N2CCc3ccccc3C2)S(C)(=O)=O)c1
  -1.2 | 0.73 | 0.0 | 2.8 | -7% | 3 | -4.9
> Cc1cccc2cc(C(c3nnnn3CC3CCCO3)N3CCCc4ccccc43)c(=O)[nH]c12 (stereo unspecified)
  -3.6 | 0.72 | -0.7 | 5.0 | 11% | 2 | 1.7
> CC1Cc2ccccc2N1C(=O)CN(C)CC(=O)Nc1ccc(OC(F)(F)F)cc1 (stereo unspecified)
  1.4 | 0.68 | -0.3 | 5.1 | . | 4 | 1.1
> COC(=O)N/N=C/c1cn(Cc2ccccc2F)c2ccccc12
  3.7 | . | 0.4 | . | 20% | 5 | 0.0

(list continues)
Under each structure – LANA-H2B inh | Ecoli growth | A1 inh | UCH37 inh | Vif TR-FRET | Beta2AR agonist | HNF4A DNA FP
> COC(=O)c1ccc(NC(=O)CCOc2ccccc2)cc1
  -1.2 | 0.69 | 0.6 | 2.2 | . | 3 | 1.8
> COc1cc(/C=N/NC(=O)c2cccnc2)ccc1OS(=O)(=O)c1ccc(F)cc1
  -3.4 | . | 0.4 | . | -3% | 5 | -2.2
> CCOC(=O)c1c(N)sc(=S)c2c1CCC2
  8.4 | 0.74 | -0.6 | 3.2 | ? | -2 | -5.2
> COC(=O)C(CCC(C(=O)OC)N1C(=O)c2ccccc2C1=O)N1C(=O)c2ccccc2C1=O (stereo unspecified)
  . | . | . | . | -5% | -1 | -5.3
> CCCc1cc(=O)[nH]c(SCC(=O)Nc2c(C)cccc2C)n1
  -1.2 | 0.72 | 0.3 | -4.7 | -2% | 2 | -1.2
> CCOC(=O)C1CCCN(C(=O)c2cc(-c3ccccc3)nc3ccccc23)C1 (stereo unspecified)
  3.1 | 0.69 | -1.4 | 3.2 | -11% | -2 | 1.3
> CCc1nc(SCC(=O)NCCc2ccccc2)n[nH]1
  -6.0 | 0.74 | 0.3 | 2.7 | 1% | -5 | 2.1
> N#Cc1ccccc1NC(=O)CSc1n[nH]c(=O)n1C1CC1
  1.7 | 0.66 | -1.2 | 1.4 | 7% | 3 | -0.6
